# UCH37 DUB inh – human UCH37 deubiquitinating enzyme inhibition | Q9Y5K5 | purified proteasome/UCH37, Ub-AMC cleavage fluorescence | inhibition, % (test concentration not listed) | 330,000 tested, 0.33% active;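 active = mean of two replicates above 20%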;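 also: 0% = compound-free wells with enzyme and 100% = wells lacking proteasome; stock transfer was 100 nL into about 20 µL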
# Target sequence (Q9Y5K5 whole entry, looked up): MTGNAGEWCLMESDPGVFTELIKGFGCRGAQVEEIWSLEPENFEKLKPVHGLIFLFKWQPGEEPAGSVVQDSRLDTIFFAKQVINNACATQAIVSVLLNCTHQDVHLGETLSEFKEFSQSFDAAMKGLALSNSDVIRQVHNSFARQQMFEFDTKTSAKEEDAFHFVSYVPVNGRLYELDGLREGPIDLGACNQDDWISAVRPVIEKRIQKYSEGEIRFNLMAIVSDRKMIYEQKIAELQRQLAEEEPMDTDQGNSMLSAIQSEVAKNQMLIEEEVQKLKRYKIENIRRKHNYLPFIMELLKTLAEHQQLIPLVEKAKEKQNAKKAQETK
#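 Reagent: Ub-AMC substrate; assay system: Proteasome-associated human UCH37 deubiquitinase; controls: no-proteasome and no-compound wells; read-out: % inhibition of Ub-AMC cleavage fluorescence; timing: 30 min preincubation with enzyme, 25 min cleavage at room temperature; signal: AMC fluorescence from Ub-AMC cleavage, excitation 355 nm, emission 460 nm; buffer or medium: Tris-HCl pH 7.4 plus ovalbumin, ATP-MgCl2, DTT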
# FGF22 binding – binders of recombinant human FGF22 by thermal shift. SYPRO orange fluorescence; percent of sucrose octasulfate shift, DMSO zero. AID 651658. calls only at 9.99 µM. 340,000 tested, 1.5% active;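 active = melting point raised past a set limit in the mean and every replicate; inconclusive = no clear call; three in four hits are not shown here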
# Target sequence (Q9HCT0 whole entry, looked up): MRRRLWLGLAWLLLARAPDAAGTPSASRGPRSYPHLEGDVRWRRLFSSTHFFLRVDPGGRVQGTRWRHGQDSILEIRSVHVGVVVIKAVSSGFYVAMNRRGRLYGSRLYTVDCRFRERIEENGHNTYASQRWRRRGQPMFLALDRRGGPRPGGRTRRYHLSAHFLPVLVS
# HNF4A DNA FP – change in binding of human HNF4 alpha to DNA | activity change, % at 10 µM | AID 1224865 | 360,000 tested, 0.3% active | HNF4a-FITC DNA binding, fluorescence polarization, 1 h; in the data active = activity change above about 30%, passing the limit was not always enough;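 also: controls were the assay level and a saturating level of protein; the project sought stronger binding though the title names inhibitors; some compounds called inactive have numbers as strong as hits; positive values seem to mean higher polarization but the record does not say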
# Target sequence (P41235 whole entry, looked up): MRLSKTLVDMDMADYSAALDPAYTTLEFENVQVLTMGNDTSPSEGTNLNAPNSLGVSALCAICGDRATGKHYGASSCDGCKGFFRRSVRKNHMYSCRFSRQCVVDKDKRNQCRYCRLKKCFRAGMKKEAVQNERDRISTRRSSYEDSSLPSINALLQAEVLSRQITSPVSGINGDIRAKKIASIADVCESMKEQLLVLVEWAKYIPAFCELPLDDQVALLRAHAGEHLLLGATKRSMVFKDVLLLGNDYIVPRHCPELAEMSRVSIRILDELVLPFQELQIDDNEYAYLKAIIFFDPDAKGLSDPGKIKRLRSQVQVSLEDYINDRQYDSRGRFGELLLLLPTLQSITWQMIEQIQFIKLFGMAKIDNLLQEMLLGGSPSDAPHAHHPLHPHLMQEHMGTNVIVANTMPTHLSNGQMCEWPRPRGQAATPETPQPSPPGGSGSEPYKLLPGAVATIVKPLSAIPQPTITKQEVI
# Vif TR-FRET – inhibitors of Vif binding to APOBEC3G peptide, primary screen, biochemical, TR-FRET, GST-Vif 1-94, biotin-A3G peptide, dose response retest (AID 1117319). one-dose inhibition, %; IC50 in µM for titrated hits. 260,000 tested, 0.57% active. TR-FRET GST-Vif / biotin-A3G peptide binding; higher % means a stronger effect; test concentration not given here; strong numbers were not always called active;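 active = above the screen mean plus three standard deviations and confirmed in dose response; inconclusive = results disagree or hit not tested in dose response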;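 also: Vif residues 1-94 fused to GST binding biotinylated APOBEC3G peptide 110-148; 0% = full assay without inhibitor and 100% = GST in place of GST-Vif; retest series ran down from 100 µM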
# Ecoli growth – E. coli growth inhibition; Escherichia coli growth, OD600, 23 h; stronger effect = lower value; 330,000 tested, 0.21% active; OD600 absorbance (concentration not given with the values); AID 1053175;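 active = OD600 absorbance below the run mean of sample wells minus 3.6 SD, in any replicate, cut at about 0.56 in these data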;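 also: stock transfer was 300 nL into about 60 µL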
# AF4-AF9 inh – inhibitors of human MLL-AF4/AF9 interaction; P42568; AlphaScreen, biotin-AF4 peptide binding to FLAG-AF9; inhibition, % at 10 µM; 350,000 tested, 0.47% active;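 active = every replicate reaching a set inhibition limit, whatever the replicate mean, cut at about 25% in these data; inconclusive = mean inhibition reaches that limit but some replicates miss it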;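 also: 0% = plate neutral control median and 100% = total signal loss; the record names both 10 and 1 µM as test concentration; the first replicate is given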
# RanGTP-Imp inh – disruptors of Ran-importin-beta complex formation – biochemical, FRET, CFP-Ran, YFP-importin-beta, homogeneous, primary screen | cell-free CFP-Ran/YFP-importin-beta FRET ratio | 300,000 tested, 1.1% active | inhibition, % (concentration not given with the values) | AID 2216;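 active = most replicates above 15%; inconclusive = exactly half above 15%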;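 also: 0% = DMSO wells and 100% = Ran loaded with GDP instead of GTP; wells of about 40 µL received 100 nL stock; the first replicate is given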
# An asterisk follows results filed as active; i = inactive; ? = inconclusive; / = not tested or not shown; & = joins results of further samples. Only part of the results is shown; rates above refer to the full screens.
SMILES,UCH37 DUB inh,FGF22 binding,HNF4A DNA FP,Vif TR-FRET,Ecoli growth,AF4-AF9 inh,RanGTP-Imp inh
COc1ccc2cc(C3(C)NC(=O)N(CC(=O)NCCC4=CCCCC4)C3=O)ccc2c1 (stereo unspecified),3.8,/,2.9,4.3%,0.718,/,-3.2
O=S(=O)(c1ccc(Cl)cc1)N1CCN(CCc2ccccc2)CC1,4.5,i,3.5,/,0.681,-1.2,-0.8
N#Cc1ccccc1NC(=O)Nc1cccc(Cl)c1,-72.0,/,1.6,15.0%,0.741,/,1.7
C/C(=N\Nc1ccc(Cl)cc1)c1ccccn1,/,/,-3.1,8.0%,/,/,-5.0
C=CCOc1nc(N(C)C)nc(N(C)C)n1,2.2,/,-0.4,1.9%,0.75,/,3.6
CCOC(=O)[C@]12CCC=C1N(Cc1ccco1)C(=O)[C@H](CC(=O)N1CCOCC1)C2,/,i,3.4,/,/,-1.6,/
Cc1ccc2c(CN(Cc3ccccc3)Cc3ccccc3)cc(=O)oc2c1,/,i,-0.1,/,/,-2.2,/
COc1ccccc1CNC(=O)c1ccccc1N,-125.6,i,8.2,-2.1%,0.74,-22.0,-0.2
COc1ccccc1CNC(=O)c1ccccc1OC,-0.1,i,4.3,-2.1%,0.688,-35.5,1.1
CC(C)Oc1ccc(Cn2c(=O)oc3ccccc32)cc1,2.5,i,5.1,2.2%,0.715,-3.2,-3.8
CC(=O)C[C@H]1c2cc(C(F)(F)F)ccc2S(=O)(=O)N1c1ccccc1,5.5,i,-2.6,/,/,-5.8,2.4
Cc1ccc(C)c(NC(=O)c2cc(-c3cc(C)ccc3O)n[nH]2)c1,4.5,i,1.0,-5.7%,0.668,-3.1,0.5
Brc1cccc(-c2nc3cccnc3nc2-c2cccc(Br)c2)c1,-0.2,i,-2.9,-8.1%,0.676,2.1,4.0
CNc1ccc(NC(C)=O)cc1[N+](=O)[O-],10.5,/,0.9,29.1%,0.691,/,-2.5
CC(C)C[C@@H](CN1CCC[C@H]1CN1C(=O)C(=O)NC[C@@H]1Cc1ccc(O)cc1)N1C[C@H](Cc2ccc(O)cc2)N(CC2CCCCCC2)C(=O)C1=O,/,i,1.5,/,/,-2.6,/
NNC(=O)c1n[nH]c(=O)c2ccccc12,1.3,i,-1.2,15.8%,0.659,-0.6,0.4
CC1(C)CC(=O)C=C(NCc2ccco2)C1,7.3,/,-1.5,-7.9%,0.779,/,2.1
COC(=O)[C@@H]1C[C@@H]2CC[C@@H](O)C[C@@H]2N1Cc1ccc(N2CCN(C)CC2)cc1,/,i,4.0,8.7%,/,2.2,1.1
Cc1cccc(C)c1NC(=O)C1(C)CCC(=O)N1C1CCN(Cc2ccccc2)CC1 (stereo unspecified),/,i,-0.6,/,/,1.0,/
COc1ccc(S(=O)(=O)N2CCC(O)(c3cccnc3)CC2)cc1OC,3.8,i,1.7,-10.8%,0.68,0.2,?
CC(C)CC(NC(=O)C(NC(=O)C1OC2OC(C)(C)OC2C2OC(C)(C)OC12)C(C)C)C(=O)O (stereo unspecified),2.7,i,0.8,-3.5%,0.721,-0.5,?
CC(C)Cc1nnc(NC(=O)CN2C(=O)NC3(CCCCC3)C2=O)s1,-0.5,i,-0.4,/,0.703,-2.5,3.6
CCO[C@@H]1OC(C(=O)N2CCN(Cc3ccccc3)CC2)=C[C@H](C)[C@H]1CCCO,1.2,i,-2.6,/,0.802,3.6,4.1
COC(=O)N/N=C\c1c(C)[nH]n(-c2ccccc2)c1=O,/,i,1.0,/,/,-0.4,6.9
O=C(Nc1ccc([N+](=O)[O-])cc1)C1CC1(c1ccccc1)c1ccccc1 (stereo unspecified),5.8,/,-0.1,15.6%,0.746,/,-2.5
CCc1c(C)c(C#N)c2nc3ccccc3n2c1-n1nc(C)cc1C,1.8,/,1.7,-1.7%,0.712,/,-3.7
O=c1cc(-c2ccc(O)cc2)oc2ccccc12,-3.2,i,2.2,-4.5%,0.722,-1.4,-0.6
Cc1cc(/C=C2\SC(=S)NC2=O)c(C)n1-c1ccccc1,3.5,i,74.9*,14.1µM*,0.74,5.7,9.3
N/C(=N\OC(=O)c1ccc2ccccc2c1)c1ccncc1,0.6,i,-4.0,/,0.646,-1.0,2.9
O=C(COC(=O)c1ccc([N+](=O)[O-])s1)Nc1ncc(C(F)(F)F)cc1Cl,16.3,/,12.6,18.7%,0.688,/,?
O=C(COc1ccccc1C(=O)O)NC1CCCc2ccccc21 (stereo unspecified),9.2,i,4.0,/,0.701,-1.4,0.5
COc1ccccc1C(=O)NCC(=O)OCC(=O)c1cccc2ccccc12,0.4,i,1.4,4.2%,0.608,2.5,?
O=C(Nc1ccc2ccccc2c1)C(c1ccccc1)C1CCCC1 (stereo unspecified),1.3,i,-1.1,/,0.699,0.1,-1.5
Cc1cccnc1NC(=S)Nc1ccc(Cl)c(Cl)c1,-1.6,/,-2.0,22.2%,0.645,-1.8,0.1
CCC(C)NC(=O)c1ccc(C(=O)c2ccccc2)cc1 (stereo unspecified),-2.4,i,-0.8,0.6%,0.684,-2.4,-1.2
O=C(O)CCSc1nnc(COc2cccc3ccccc23)n1-c1cccc(Cl)c1,4.7,/,-0.7,-6.5%,0.641,-8.0,?
CCOc1ccc(/C=C/c2nc(C#N)c(NCCCN(C)C)o2)cc1,-155.1,/,-2.6,-6.0%,0.677,-2.5,-2.4
O=C(/C=C/c1ccccc1[N+](=O)[O-])OCC(=O)N1CCN(c2ccccc2)CC1,/,i,0.8,-1.4%,/,2.8,/
CCn1c(=O)n(CC)c2cc(NC(=O)c3ccccc3Cl)ccc21,1.6,i,-3.7,/,0.707,-6.3,-0.4
Cc1ccc(C(C)NC(=O)c2ccncc2)c(C)c1 (stereo unspecified),3.1,i,4.7,1.3%,0.686,-0.4,-0.1
COc1ccc(-c2nc(CN3CCN(C(=O)c4ccco4)CC3)c(C)o2)c(F)c1,-3.8,i,3.2,-1.5%,0.714,0.9,0.5
CCc1ccc(/C=N/NC(=O)c2c[nH]c3ccccc23)s1,/,/,2.4,3.7%,/,/,2.7
Cc1ccc2[nH]c(C(=O)N3CCCC(Nc4ccc(F)cc4)C3)cc2c1 (stereo unspecified),0.3,i,1.0,3.5%,0.69,-1.0,1.7
O=C(COC(=O)CCc1ccccc1)Nc1cc(S(=O)(=O)N2CCOCC2)ccc1N1CCCC1,5.8,i,3.7,-3.0%,0.689,0.7,0.4
CCOC(=O)CNC(=O)CSc1nnc(NC(=O)c2ccc(S(=O)(=O)N3CCOCC3)cc2)s1,-12.2,i,5.8,/,0.699,-2.2,-3.6
COc1ccc(OC)c(CCNC(=O)C2CCN(c3ncnc4c3nc3n4CCCCC3)CC2)c1,1.4,i,-6.6,/,0.711,-1.7,-1.7
O=C(O)c1ccc(/C=N/N2CCN(Cc3cccc4ccccc34)CC2)cc1,/,i,1.4,1.5%,/,5.6,3.2
COc1cc(S(=O)(=O)N2CCOCC2)ccc1NC(=O)COC(=O)C12CC3CC(CC(C3)C1)C2,-3.3,/,31.4,-3.4%,0.739,/,3.8
O=C(NCCc1ccccc1)C1CCN(S(=O)(=O)c2cccc3nsnc23)CC1,2.0,/,-1.3,-0.4%,0.735,/,2.0
COc1ccccc1C(=O)NCCC(=O)NCC(c1ccc(F)cc1)N1CCOCC1 (stereo unspecified),1.8,i,2.3,-4.3%,0.699,4.0,2.6
# Remaining list, next part.
SMILES,UCH37 DUB inh,FGF22 binding,HNF4A DNA FP,Vif TR-FRET,Ecoli growth,AF4-AF9 inh,RanGTP-Imp inh
CC(C)(C)NC(=O)/C(=C/c1cccnc1)NC(=O)c1ccco1,5.0,i,-1.9,-7.4%,0.707,3.3,0.9
Cc1ccc(S(=O)(=O)NCc2ccc(/C=C(/C#N)C(=O)NCc3ccccc3)o2)cc1,4.3,i,-0.6,3.5%,0.644,-6.1,2.3
Cc1c(/C=N/NC(=O)c2ccc(Br)o2)cnn1C,/,i,-1.8,1.0%,/,-2.6,3.2
COc1ccc(C2C3=C(CC(C)(C)CC3=O)Oc3ncn(CCCn4ccnc4)c(=N)c32)cc1 (stereo unspecified),0.1,/,1.2,6.8%&15.5%,0.768,/,-4.7
CN(C)C(=O)c1cccc(-c2cnc3c(NC=O)cc(-c4cccc(C(F)(F)F)c4)cn23)c1,/,i,9.1,/,/,-0.7,/
COc1ccc2c(c1)CCc1c(C(=O)NCCN3CCOCC3)noc1-2,-2.6,/,1.1,18.2%,0.697,/,8.0
CCOC(=O)N1CCN(Cc2cn[nH]c2-c2cc3ccccc3o2)CC1,1.2,i,-2.3,/,0.703,-2.8,-0.3
CCOc1ccc(C(=O)NNC(=O)CCNC(=O)c2ccco2)cc1OC,1.8,i,-0.3,-3.1%,0.687,3.3,0.0
CN(CC(=O)NCC(c1ccco1)N1CCCCC1)S(=O)(=O)c1ccc(Cl)cc1 (stereo unspecified),3.2,i,2.2,0.4%,0.693,2.6,0.5
O=S(=O)(Nn1cnnc1)c1ccccc1Cl,0.6,/,-0.3,-4.0%,0.729,/,1.3
O=C(O)c1ccc(-c2ncc[nH]2)cc1,-7.0,i,5.3,/,0.694,0.5,-3.6
CCCCNc1c2c(nc3c(-c4ccccc4)c(C)nn13)CCC2,-164.2,i,1.1,5.6%,0.651,-3.9,-6.9
Cc1n[nH]c(C)c1S(=O)(=O)N1CCCC(C(=O)N2CCc3ccccc32)C1 (stereo unspecified),0.3,/,2.2,-7.3%,0.746,/,1.8
CC(C)Cc1nnc(NC(=O)Cc2ccc([N+](=O)[O-])cc2)s1,/,i,-2.2,21.9%,/,-2.4,3.8
COc1ccc(Cl)c(-c2cc(C(=O)Nc3ccc(C)c(NS(C)(=O)=O)c3)[nH]n2)c1,/,i,0.4,/,/,-0.3,/
Cc1ccsc1C(=O)N1CCC1(C)C(=O)NCc1cccc2ccccc12 (stereo unspecified),/,i,-2.2,/,/,-4.4,/
Cn1c(=O)c2c(nc(CN3CCc4ccccc4C3)n2Cc2ccccc2F)n(C)c1=O,0.4,/,-2.5,?,0.716,/,1.0
COC(=O)NNC(=O)C1CCC(C(=O)NNC(=O)OC)CC1 (stereo unspecified),-3.2,/,-3.8,/,0.661,/,3.8
COc1ccc(Nc2ccc(C(N)=O)cc2[N+](=O)[O-])cc1,7.8,i,2.9,-5.7%,0.679,5.1,3.9
CCCOc1ccc(C2NC(=S)NC(c3ccccc3)=C2C(=O)Nc2ccc(C)cc2)cc1OC (stereo unspecified),1.7,/,1.2,?,0.699,/,-0.2
CN(Cc1ccccc1)c1nc(N)c([N+](=O)[O-])c(NCc2ccccc2)n1,9.3,/,-6.1,/,0.703,/,0.7
CCSc1cc(N2CCCC2)nc(-c2ccc(C)cc2)n1,2.4,/,-0.4,7.6%,0.709,/,?
Cc1nn(CC(=O)Nc2nc3ccccc3s2)c(C)c1[N+](=O)[O-],2.5,/,-0.7,-2.7%,0.692,/,?
Cc1ccc(NC2=NC(c3ccc(F)cc3)n3c(nc(C)cc3=O)N2)cc1 (stereo unspecified),2.4,i,2.4,5.7%,0.615,1.4,0.8
COc1cc(C2NC(=O)NC(C)=C2C(=O)Nc2cccc(C)c2C)cc(OC)c1OC (stereo unspecified),3.7,/,3.7,13.1%,0.725,/,-0.2

# Entries of single compounds from above.
# `COc1cc(C2NC(=O)NC(C)=C2C(=O)Nc2cccc(C)c2C)cc(OC)c1OC` (stereo unspecified) is entered as UCH37 DUB inh = 3.7; FGF22 binding = /; HNF4A DNA FP = 3.7; Vif TR-FRET = 13.1%; Ecoli growth = 0.725; AF4-AF9 inh = /; RanGTP-Imp inh = -0.2
# `CCSc1cc(N2CCCC2)nc(-c2ccc(C)cc2)n1` is entered as UCH37 DUB inh = 2.4; FGF22 binding = /; HNF4A DNA FP = -0.4; Vif TR-FRET = 7.6%; Ecoli growth = 0.709; AF4-AF9 inh = /; RanGTP-Imp inh = ?
